Screens (PubChem)
KCNQ2 enhance – potentiators of rat KCNQ2 potassium channel; AID 2239, 2010; B-score at 10 µM; Potassium voltage-gated channel subfamily KQT member 2 (Rattus norvegicus), O88943; CHO-K1 KCNQ2, FluxOR thallium flux fluorescence; stronger effect = higher value; 310,000 compounds, 0.54% hits;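 active means fluorescence ratio B-score at least 3 SD of library B-scores, with initial fluorescence B-score within 3 SD, cut at about 5.3 in these data; same plate scores as AID 2156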;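 further: B-score of peak minus minimum over baseline fluorescence ratio after K+ and Tl+ stimulus; positive B-score means potentiation of KCNQ2 with more thallium influx and brighter signal; only the inactives scoring about 0 or higher are listed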
Target sequence (O88943 whole entry, looked up): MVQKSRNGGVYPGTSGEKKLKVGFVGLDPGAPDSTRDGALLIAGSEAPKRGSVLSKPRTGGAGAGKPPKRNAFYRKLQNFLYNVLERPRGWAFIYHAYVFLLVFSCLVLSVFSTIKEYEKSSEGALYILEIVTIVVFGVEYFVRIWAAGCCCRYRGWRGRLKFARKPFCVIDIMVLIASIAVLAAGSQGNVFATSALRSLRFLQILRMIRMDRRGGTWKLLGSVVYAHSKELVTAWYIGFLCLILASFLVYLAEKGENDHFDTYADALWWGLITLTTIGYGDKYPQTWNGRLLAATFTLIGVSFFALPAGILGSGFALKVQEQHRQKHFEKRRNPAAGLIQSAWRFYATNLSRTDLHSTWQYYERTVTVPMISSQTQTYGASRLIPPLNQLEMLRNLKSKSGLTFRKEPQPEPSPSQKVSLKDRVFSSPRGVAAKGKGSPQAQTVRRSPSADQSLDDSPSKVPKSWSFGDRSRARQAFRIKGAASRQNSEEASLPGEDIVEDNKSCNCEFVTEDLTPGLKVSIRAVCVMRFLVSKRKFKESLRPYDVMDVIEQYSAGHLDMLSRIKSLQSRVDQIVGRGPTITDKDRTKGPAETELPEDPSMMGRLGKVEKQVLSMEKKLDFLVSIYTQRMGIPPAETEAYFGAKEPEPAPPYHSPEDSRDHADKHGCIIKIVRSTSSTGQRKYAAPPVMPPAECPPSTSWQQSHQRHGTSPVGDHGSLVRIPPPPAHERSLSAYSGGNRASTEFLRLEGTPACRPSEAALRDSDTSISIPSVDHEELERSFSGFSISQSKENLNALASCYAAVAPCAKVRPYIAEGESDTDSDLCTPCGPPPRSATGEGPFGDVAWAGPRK
KCNQ2 enhance baseline – also measured in KCNQ2 enhance; calls as there; B-score; compound at 10 µM; measured here: initial fluorescence intensity artifact check;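 brightness before thallium and not channel activity; 0 = typical well and far values either way flag optical interference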
Active calls of the source: *. Some of the compounds tested, so the mix of outcomes need not match the whole.

Each structure is followed by: KCNQ2 enhance	KCNQ2 enhance baseline
CCOc1c2ccc(C(=O)NCc3cc(C(F)(F)F)cc(C(F)(F)F)c3)cc2nn1C
 : 0.85	0.26
CCOC(=O)N1CCN(C(=O)COC(=O)CSc2cc(C)c(Br)cc2C)CC1
 : 1.8	-0.15
ClC1(Cl)CC1CSc1nc2ccccc2[nH]1 (stereo not drawn)
 : 2	-0.43
Cc1csc(C2=C(O)CN(CCc3ccccc3)C2=N)n1
 : 0.46	0.13
CCn1cc(/C=C/C(=O)Nc2ccn(Cc3c(F)c(F)c(F)c(F)c3F)n2)cn1
 : 1.3	-1.3
CC(C)(C)NC(=O)C(c1ccncc1)N(C(=O)Cn1nnc(-c2ccc(F)cc2)n1)c1ccccc1F (stereo not drawn)
 : 0.28	-0.31
C=CCn1c(NCCOC)nc2c1c(=O)n(C)c(=O)n2C
 : 0.66	-0.42
CC(C)(C)c1ccc(OCCC(=O)Nc2cccc(S(=O)(=O)N3CCCC3)c2)cc1
 : 0.02	1.8
COc1ccc(NC2=Nc3cccc4cccc2c34)cc1
 : 1.1	-0.25
O=C(NCC1CCCO1)c1cc(-c2ccc(Cl)cc2Cl)on1 (stereo not drawn)
 : 0.04	0.04
CCC(C)NC(=O)Cc1ccc(-c2ccccc2)cc1 (stereo not drawn)
 : 0.41	2
Cc1ccc2cc(CN(C(=O)c3ccco3)c3ccccc3)c(=O)[nH]c2c1
 : 1.9	-0.94
Cc1cc(C)c(NC(=O)C(C)OC(=O)c2cc(Br)c(Br)s2)c(C)c1 (stereo not drawn)
 : 1.5	-0.87
COc1ccccc1C/C(N)=N/OC(=O)c1cccc([N+](=O)[O-])c1
 : 0.61	-0.41
C[C@@H](C(=O)NCC1CCCO1)N1C(=O)N2CCc3c([nH]c4ccccc34)[C@@]2(C)C1=O (stereo partly drawn)
 : 0.05	0.02
CC1CCN(c2c(NCc3ccc(C(=O)N4CCc5ccccc54)cc3)c(=O)c2=O)CC1
 : 0.02	0.87
CCOC(=O)c1cc2c(=O)n3ccccc3nc2n(C)c1=NC(=O)c1c(-c2c(F)cccc2Cl)noc1C
 : 0.59	0.96
O=C(CCc1ccc(S(=O)(=O)N2CCOCC2)cc1)Nc1ccc(N2CCOCC2)cc1
 : 0.71	-0.02
CCN(c1ccccc1)S(=O)(=O)c1ccc(Cl)c(NC(=O)COC(=O)C2CC2C)c1 (stereo not drawn)
 : 0.53	0.83
O=C(CSc1ncnc2scc(-c3ccccc3)c12)N1CCN(Cc2ccc3c(c2)OCO3)CC1
 : 0.19	1.4
CCCCN(C(=S)Nc1ccccc1)C1CCS(=O)(=O)C1 (stereo not drawn)
 : 1.1	-0.44
CCc1ccc(CNC(=O)CCc2nnc(CCc3ccc(OC)cc3)o2)nc1
 : 1.7	0.03
O=C(CN1CCCCC1CO)c1ccc(OC(F)F)cc1 (stereo not drawn)
 : 2	0.77
CCOc1ccc2nc(NS(C)(=O)=O)sc2c1
 : 0.68	0.41
CCOC(=O)Nc1cc(=O)c2ccccc2o1
 : 1.3	0.14
N[C@@H](Cc1ccccc1)C(=O)N1CCC(C(=O)N[C@@H](CCC(=O)O)C(=O)O)CC1
 : 1.3	1.5
O=C(CSc1nnc(Nc2ccccc2)s1)NCc1cccs1
 : 0.36	-0.17
O=Cc1cn(Cc2ccccc2)nc1-c1cccnc1
 : 1.1	-1.8
O=S(=O)(c1cccs1)N1CCN(c2ccnc3cc(Cl)ccc23)CC1
 : 1.3	1.2
Cc1ccc(NC(=O)CCn2c(=O)[nH]c3ccsc3c2=O)cc1F
 : 0.23	0.4
O=C(Cn1c(-c2ccccc2)noc1=O)N1CCC(Cc2ccccc2)CC1
 : 0.82	1.1
O=C(NCCCN1CCOCC1)c1onc(CSc2ccncc2)c1C(=O)NCCCN1CCOCC1
 : 2.2	-1.2
C/C(=N/O)c1ccc(N2C(=O)C3C4C=CC(C3C2=O)C2C3C(=O)N(c5ccc(/C(C)=N/O)cc5)C(=O)C3C42)cc1 (stereo not drawn)
 : 0.24	0.28
CCCCc1cc(=O)oc2cc(C)cc(OCC(=O)N3CCC(C(=O)O)(c4ccccc4)CC3)c12
 : 1.4	0.29
Cc1ccnc2c(N3C(=O)C4C5C=CC(C5)C4(C)C3=O)cccc12 (stereo not drawn)
 : 0.8	0.11
Cc1ccnc(SC2CC(=O)N(c3ccc(C(C)C)cc3)C2=O)n1 (stereo not drawn)
 : 0.39	0.55
O=C(NCc1ccco1)C(=O)c1cn(CC(=O)N2CCCC2)c2ccccc12
 : 1.1	-0.03
O=c1cc(-c2ccccc2Cl)oc2c(NS(=O)(=O)c3cccc4nsnc34)ccc(O)c12
 : 0.02	0.99
Cc1cc2ncn(CC3CC3(Cl)Cl)c2cc1C (stereo not drawn)
 : 1.1	1.4
COc1ccc(N2CCN(Cc3nc(N)nc(Nc4ccccc4OC)n3)CC2)cc1
 : 1.1	0.32
CCOc1ccc(NC(=S)NCc2cccnc2)cc1
 : 1.1	0.61
Cc1cc(C)cc(OCC(=O)OC/C(O)=C(\C#N)c2nc3ccccc3[nH]2)c1
 : 0.72	0.49
CC(C)N(Cc1ccccc1)S(=O)(=O)c1ccc(F)cc1
 : 0.27	0.01
COc1ccc(-c2cc(C(=O)NNC(=O)c3csc(N4CCOCC4)n3)c3ccccc3n2)cc1OC
 : 0.04	-1.9
CSc1nc(=O)n2cc(C)ccc2n1
 : 0.47	0.85
O=C(CCCC(=O)N(CC(=O)NC1CCCC1)Cc1ccc(F)cc1)Nc1ccccn1
 : 1.2	0.01
O=C(Nc1ccc2[nH]c(=O)[nH]c2c1)C(F)(F)F
 : 1.8	-0.05
Cn1nc(-c2ccc(Cl)cc2)c2cc(C(=O)N3CCN(C(=O)c4ccco4)CC3)sc21
 : 0.11	1.1
O=C(O)CN1C(=O)c2cccc3c(Br)ccc1c23
 : 1.8	-0.56
COc1ccc(Cc2nnc(N/N=C/c3ccccc3O)[nH]c2=O)cc1OC
 : 0.49	2.9

New compounds follow.
Each structure is followed by: KCNQ2 enhance	KCNQ2 enhance baseline
CCN(c1ccc(OC)cc1)S(=O)(=O)c1ccc(-c2ccc(=O)[nH]n2)o1
 : 0.02	0.24
COc1ccc(S(=O)(=O)NCC2CCCN(CC(C)(C)C)C2)cc1 (stereo not drawn)
 : 0.96	-0.33
CCN(CC(=O)NCc1cccs1)C(=O)c1ccc(NS(=O)(=O)c2ccc(F)cc2)cc1
 : 1.2	0.05
COc1ccc(S(=O)(=O)N2CCCC2)cc1OC
 : 0.02	-0.1
Cc1cc(NC(=O)c2ccc(S(=O)(=O)N(C)C)cc2)n(-c2ccccn2)n1
 : 0.41	0.47
Cc1cc(C)cc(NC(=O)N2CCCN(c3c(Cl)cncc3Cl)CC2)c1
 : 0.07	2.7
O=C(Nc1ccccc1C(=O)N1CCCCC1)c1cccc(S(=O)(=O)N2CCOCC2)c1
 : 1.1	-0.45
COC(=O)c1cc(OC)nc(OC)c1
 : 0.76	-0.12
O=C1CCC(CCC(=O)N2CCCC(C(=O)c3cccc(C(F)(F)F)c3)C2)=NN1 (stereo not drawn)
 : 0.61	0.85
O=C(C[n+]1ccc(-c2nnc3n2CCC3)cc1)c1ccc(Cl)cc1
 : 0.38	-0.04
CCOC(=O)N/C(N)=N/c1nc2ccccc2s1
 : 0.75	1.2
Cn1cnnc1SCCNS(=O)(=O)c1ccccc1
 : 0.55	-0.73
COc1ccc(S(=O)(=O)Nc2ccccc2)cc1OC
 : 0.62	-1.5
O=C(O)c1cc(-c2ccccc2)nc2nc(N3CCCCC3)sc12
 : 1.9	1.6
O=C(O)c1cc([N+](=O)[O-])cc2c1C=Cc1ccccc1O2
 : 1.7	-4
Cc1cc(C(=O)NCc2ccccc2)no1
 : 0.04	0.55
CC(=O)N[C@@H](C)c1nc2ccccc2n1CCNC(=O)[C@H]1CCCN1c1nc(CN2CCCCC2)cs1
 : 0.02	-1.1
COc1ccc(C2CC(=O)N3CN(Cc4ccco4)CSC3=C2C#N)cc1 (stereo not drawn)
 : 0.36	0.04
Cc1ccc([N+](=O)[O-])cc1S(=O)(=O)N1CCCCC1C(=O)O (stereo not drawn)
 : 0.95	0.14
Cc1cccc(CSc2ncccc2C(=O)O)c1
 : 0.15	0.98

In another format: entries from further up
KCNQ2 enhance,KCNQ2 enhance baseline,SMILES
0.55,-0.73,Cn1cnnc1SCCNS(=O)(=O)c1ccccc1
0.62,-1.5,COc1ccc(S(=O)(=O)Nc2ccccc2)cc1OC

The list continues:
Each structure is followed by: KCNQ2 enhance	KCNQ2 enhance baseline
COc1ccc2[nH]cc(CCNC(=O)Nc3ccccc3)c2c1
 : 0.34	0.14
COc1ccc(S(=O)(=O)NCC(=O)O)cc1C(=O)NC1CCCCC1
 : 0.95	-1.4
COc1ccc2nc3c(cc2c1)c(NC(=O)CC(C)C)nn3CC(C)C
 : 0.63	0.94
C=CCSc1nc2c(c(=O)[nH]c(=O)n2C)n1C(C)C
 : 1.4	0.69
CCOC(=O)N1CCN(c2c(NCc3ccccn3)c(=O)c2=O)CC1
 : 1.1	-0.16
CCOc1ccc(S(=O)(=O)N2CCC(C(=O)NCCc3ccc(OC)c(OC)c3)CC2)cc1
 : 0.99	1.2
O=C1c2nccnc2C(=O)N1c1ccc(C(F)(F)F)cc1
 : 0.05	0.61
CCOC(=O)c1ccc(NC(=O)CCNc2c(N3CCCC3)c(=O)c2=O)cc1
 : 0.29	-2.5
CNc1[nH]c(=O)[nH]c(=O)c1N=Nc1cc(Cl)ccc1Cl
 : 1.2	-0.49
COc1ccc(Cl)c2sc(N(Cc3cccnc3)C(C)=O)nc12
 : 0.6	0.97

Single records (already shown). Order of screens: KCNQ2 enhance	KCNQ2 enhance baseline
Shown for CCOC(=O)c1ccc(NC(=O)CCNc2c(N3CCCC3)c(=O)c2=O)cc1 : 0.29	-2.5
Shown for CNc1[nH]c(=O)[nH]c(=O)c1N=Nc1cc(Cl)ccc1Cl : 1.2	-0.49
Shown for CCOC(=O)N1CCN(c2c(NCc3ccccn3)c(=O)c2=O)CC1 : 1.1	-0.16
Shown for COc1ccc(Cl)c2sc(N(Cc3cccnc3)C(C)=O)nc12 : 0.6	0.97
Shown for COc1ccc2nc3c(cc2c1)c(NC(=O)CC(C)C)nn3CC(C)C : 0.63	0.94

Continued:
Each structure is followed by: KCNQ2 enhance	KCNQ2 enhance baseline
COc1ccccc1C1N(c2cc(Cl)ccc2OC)C(=O)C2CCCN21 (stereo not drawn)
 : 0.13	1.5
Cc1ccnc(SCC(=O)NC2CCCCCC2)n1
 : 2.1	-0.04
Nc1ccc(SCc2nc3cccc4c3n2CCC4)cc1
 : 1.5	-0.02
Cc1ccc(-c2cc(N)on2)cc1
 : 1.6	-0.23
O=C(CN1CCOCC1)Nc1ccc(Br)cn1
 : 1.8	0.43
COc1ccccc1N1CCN(C2CCCN(C(=O)c3cccc(-c4ccco4)c3)C2)CC1 (stereo not drawn)
 : 0.22	0.01
C#CCOCCOCCOCCNc1nc(N2CCN(C(=O)[C@H]([C@@H](C)CC)n3cc([C@@H](N)CC(C)C)nn3)CC2)nc(N2CCN(C(=O)[C@H](CCCCN)n3cc([C@@H](N)C(C)CC)nn3)CC2)n1 (stereo partly drawn)
 : 0.04	0.22
COc1ccc(NC(=O)CS(=O)(=O)c2cn(CC(=O)N(C(C)C)C(C)C)c3ccccc23)c(OC)c1
 : 0.52	-0.72
COc1ccc(Nc2c(-c3ccc(OC)cc3)nc3cnccn23)cc1
 : 0.85	-0.33
Fc1cccc2sc(N3CCCC3)nc12
 : 0.45	-0.01
CN(C)S(=O)(=O)c1ccc(Cl)c(C(=O)Nc2nc3ccccc3[nH]2)c1
 : 0.04	0.63
CCn1c(=S)sc2c(=O)n(CC(=O)Nc3ccc(C(C)=O)cc3)c(C)nc21
 : 0.56	2.9
Cn1nc(C(=O)NCCCN2CCCCC2)c2c1-c1ccccc1S(=O)(=O)C2
 : 0.87	0.03
CCCN1CNc2c(c(=O)[nH]c(=S)n2CCc2ccc(OC)c(OC)c2)C1
 : 0.81	1.7
COCCn1c(SCC(=O)Nc2ccc(C(C)=O)cc2)nnc1-c1ccco1
 : 0.16	-0.52
COc1ccc(-c2csc(N(Cc3ccccc3)C(=O)COc3ccc(Cl)cc3)n2)cc1
 : 0.63	-1.2
N#C/C(=C\c1ccco1)C(=O)NCc1ccccc1
 : 1.1	-2.2
CCCC(c1nnnn1C(C)(C)C)N1CCN(C(=O)c2ccco2)CC1 (stereo not drawn)
 : 1.8	0.07
Cc1cccc(NC(=O)Nc2cccc(C#N)c2)n1
 : 0.56	0.44
Cn1nc(C(F)(F)F)c2cc(C(=O)Nc3ccc(Cl)cc3)sc21
 : 1.8	-0.04
Cc1cccc(C(=O)N2CCc3cc(-c4csc(NC(=O)CN5CCCC5)n4)ccc32)c1
 : 1.5	0.08
Cc1ccc(CNC(=O)c2ccc(CNc3c(N4CCCC4)c(=O)c3=O)cc2)cc1
 : 0.07	1
O=C1NC[C@@H](Cc2ccc(O)cc2)N(CC2CCCCC2)C1=O
 : 0.54	0.34
COc1ccc(CNCCC2(C(C)C)CCOC(C)(C)C2)cc1 (stereo not drawn)
 : 0.59	1.5
CC1CC(Nc2ccccc2)c2ccccc2N1C(=O)c1ccccc1F (stereo not drawn)
 : 1.1	-1.9
CCOc1ccc(/C=N/NC(=O)CN2CCCCCCC2)cc1
 : 0.01	0.07
Cc1cccc(-c2noc(-c3ccc4c(c3)OCO4)n2)c1
 : 0.4	-0.6
Cc1ccc2ncnc(Nc3cccc([N+](=O)[O-])c3)c2c1
 : 1.1	-0.1
COCCN1C(=O)N[C@H](c2cccc(C(F)(F)F)c2)C(C(=O)OC)=C1C
 : 1.5	-0.64
COc1ccnc(NCc2cccnc2)c1C#N
 : 0.81	-1.3
CCNC(=S)NNC(=O)c1cc(C2CC2)nc2ccccc12
 : 0.96	-0.99
CC(C(=O)Nc1ccc(Cl)cc1)c1ncc(C(F)(F)F)cc1Cl (stereo not drawn)
 : 0.46	0.59
